# Screens (PubChem BioAssay)
# Yeast UUG start: yeast start codon fidelity modulation | S. cerevisiae UUG-firefly luciferase reporter, luminescence/redox ratio | activity score, % at 18.7 µM | hit rate 0.13% among 350,000 | AID 602363;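 active = replicate mean at a twofold rise or more, about +100% in these data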;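 note: firefly luciferase made from a UUG start codon reports start codon fidelity; reporter light over untreated wells divided by growth signal over untreated wells; some hits fall short of that in this replicate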
# eIF4H FP inh: inhibitors of RNA binding by human eIF4H; inhibition, % at 35 µM; hit rate 0.94% among 290,000; eIF4H fluorescence polarization binding assay; AID 2012; Q15056;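 active = 50% or more with normal probe brightness, or confirmed in later tests; inconclusive = above 50% with abnormal brightness, or retests that disagree; inactive = below 50% or failed in later tests; about a fifth of its hits are not listed in these tables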;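 note: calls also rest on retests at 20 µM and on dose response follow-up; 0% = protein and probe with vehicle and 100% = probe without protein; strong numbers were not always called active; many hits fall short of the cut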
# PABP FP inh: blocks human PABP binding to poly(A) RNA; P11940; fluorescence polarization; inhibition, % at 35 µM; hit rate 1% among 290,000;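 active = 50% or more with normal probe brightness, or confirmed in later tests; inconclusive = above 50% with abnormal brightness, or retests that disagree; inactive = below 50% or failed in later tests; about a fifth of its hits are not listed in these tables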;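 note: calls also rest on retests at 20 µM and on dose response follow-up; controls were probe without protein and protein plus probe with vehicle; some compounds called inactive have numbers as strong as hits; many hits fall short of the cut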
# MT1-MMP act inh: blocks activation of human MT1-MMP. P50281. HT1080 RFP-PRO-GFP cells, GFP/RFP ratio fluorescence, overnight; percent of plate control window, DMSO zero. GFP/RFP ratio change, % at 20 µM. hit rate 0.061% among 360,000. AID 651647;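 active = GFP/RFP ratio change of at least 30% with cell ATP level not reduced by more than half and red fluorescence within 50% of control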; note: strong numbers were not always called active
#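 Assay system: RFP-PRO-GFP reporter HT1080 cells; read-out basis: GFP/RFP fluorescence ratio; benchmarks: DMSO wells and RFP-L50D-GFP cells; doses: 20 µM single dose, 1% DMSO; schedule: overnight cell settling, then overnight compound exposure, 37 °C, 5% CO2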
# Env fusion inh: inhibitors of HIV Env-mediated cell fusion; HeLa-JRFL Env/CEM21 cell fusion, luciferase; inhibition, % at 12.3 µM; hit rate 1.1% among 360,000; AID 651610;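 active = mean replicate inhibition score of at least 50 and every replicate individually at or above 50; inconclusive = only one of the two criteria met; inactive = mean below 50 and not all replicates reaching 50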;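 note: 0% = plate neutral controls and 100% = maraviroc near 300 nM; one replicate is shown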
# Rce1 inhib: yeast Ras-converting enzyme inhibition; yeast membranes, quenched prenylated peptide cleavage fluorescence; hit rate 0.27% among 290,000; Q03530; calls only;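 active = fall in fluorescence gain of 50% or more versus controls, with final raw signal at or below 3038400; inconclusive = same 50% fall but final raw signal above 3038400; inactive = fall in fluorescence gain under 50%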;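 note: plate controls were neutral control wells for no effect and wells lacking membranes for full effect; tested at 10 µM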
# Target sequence (Q03530 whole entry, looked up): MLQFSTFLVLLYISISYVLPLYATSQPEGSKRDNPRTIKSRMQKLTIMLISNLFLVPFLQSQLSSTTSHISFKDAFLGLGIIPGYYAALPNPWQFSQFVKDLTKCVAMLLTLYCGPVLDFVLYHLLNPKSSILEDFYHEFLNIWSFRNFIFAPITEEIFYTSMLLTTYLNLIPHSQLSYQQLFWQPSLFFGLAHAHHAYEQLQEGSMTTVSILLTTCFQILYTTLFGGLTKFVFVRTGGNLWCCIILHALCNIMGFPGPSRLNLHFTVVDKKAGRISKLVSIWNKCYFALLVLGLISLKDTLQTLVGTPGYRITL
# CSC inhib: blocks cancer stem cells; cancer stem cell-like cells viability, luminescence; inhibition, % at 7.5 µM; hit rate 1.1% among 300,000;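 active = mean at 75% or more and at least half the replicates too; inconclusive = mean and replicates disagree; tested in HMLE shEcad cells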;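 note: 0% = median of negative and 100% = median of positive control wells; the first replicate is given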
# MT1-MMP act inh RFP: also measured in MT1-MMP act inh; calls as there; RFP signal change, %; measured here: RFP expression control read;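 0 = vehicle wells; hits needed this value within 50% of zero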
# An asterisk follows results filed as active; i = inactive; u = inconclusive; x = not tested or not shown; + = active, no number. A portion of the library; rates above refer to the full screens.
smiles,PABP FP inh,CSC inhib,MT1-MMP act inh,Rce1 inhib,Yeast UUG start,eIF4H FP inh,MT1-MMP act inh RFP,Env fusion inh
O=C(Cc1ccc(NC(=O)C2CCN(C(=O)c3ccccc3)CC2)cc1)Nc1cccc(C(=O)N2CCCC2)c1,x,x,0,x,-3,x,3,20
C=CCc1ccc2oc(C(=O)OCC)cc(=O)c2c1O,-4,7,1,i,x,-14,-1,2
CCOC(=O)Nc1cc(OCC)c(NC(=O)C2CC2)cc1OCC,9,x,1,i,-10,-7,-1,x
COc1ccc(-c2nonc2NC(=O)c2oc3ccc(F)cc3c2C)cc1OC,3,10,-3,i,8,-4,-3,-7
CCOc1ccccc1/C=C/c1nc2ccccc2[nH]c1=O,u,27,1,i,-31,u,0,4
O=C(NCc1ccc2c(c1)OCO2)c1cc2c(s1)CS(=O)(=O)C2,5,3,2,i,-14,0,0,-60
CSc1ccc(S(=O)(=O)NC(C)c2ccccc2)cc1 (stereo not drawn),4,-5,1,i,x,-11,0,2
Cc1ccc(C(=O)NCCCN2CCN(CCCNC(=O)c3ccc(C)cc3)CC2)cc1,x,-2,0,i,-8,x,4,-14
Cc1cc(NC(=O)c2ccc(Cn3nc(C)c(Br)c3C)o2)no1,-4,2,5,i,6,7,1,x
O=C(O)CCCNC(=O)Cc1ccccc1,-17,-7,-1,i,x,4,3,7
CC1CN(Cc2ccco2)C(=S)NC1=O (stereo not drawn),x,x,1,x,-17,x,-4,-6
Cc1cc(C)c2c(c1)/C(=c1/sc3n(c1=O)CN(c1ccccc1)CN=3)C(=O)N2,11,2,7,i,x,49,-1,6
Cc1ccc(C(=O)NC2(C(Cl)Cl)N=C(c3ccccc3)N=C2N)cc1 (stereo not drawn),3,-6,4,i,x,-1,2,-28
Cc1ccccc1NS(=O)(=O)c1ccc(C(=O)N2CCCCCC2)cc1,x,-15,12,i,25,x,-8,21
Nn1c(SCC(=O)N2CCCc3ccccc32)nncc1=O,7,0,-8,i,x,-8,-2,6
O=C(CCN1C(=O)/C(=C\c2ccccc2)SC1=S)NNC(=O)c1ccccc1O,4,17,10,i,-13,-3,3,1
COc1cc(C(=O)Nc2ccc3nc(N4CCN(C)CC4)cc(C)c3c2)cc(OC)c1OC,-1,-14,3,i,-10,-4,1,15
CC(C)C(NC(=O)C(C)N1C(=O)c2ccccc2C1=O)c1ccccc1 (stereo not drawn),5,-9,0,i,-10,-8,2,7
Fc1cccc(C2NC(=S)NC3=C2N2CCC3CC2)c1 (stereo not drawn),-2,6,-5,i,-12,5,0,-13
O=C(NNC(=O)c1cccc(S(=O)(=O)N2CCN(c3ccccc3)CC2)c1)c1ccc(Cl)cc1,6,-6,1,i,x,7,-10,x
CCCOc1ccccc1C(=O)NCCCC(=O)O,-4,-3,0,+,-7,4,8,x
COc1ccc(OC)c2c(N3CC(C)OC(C)C3)cc(C(F)(F)F)nc12 (stereo not drawn),x,-11,13,i,-15,x,-7,9
Cc1cc(C(=O)N/N=C/c2cccnc2)c2ccccc2n1,2,-3,1,x,-10,-5,5,12
Cc1cc(NC(=O)COC(=O)C2CCCN2C(=O)c2cccs2)no1 (stereo not drawn),-3,-9,11,i,16,-13,9,-16
Cc1ccc(N(CC(=O)NCc2ccc(F)cc2)S(=O)(=O)c2cccs2)cc1,-1,-6,-2,i,x,-2,-6,2
COc1ccccc1N1CCN(C(c2ccccc2)c2nnnn2CCc2ccccc2)CC1 (stereo not drawn),9,-7,-17,i,2,0,-15,x
CCOC(=O)C1CCN(CCC(=O)Nc2ccc(C)cc2)CC1,-8,-9,-1,i,0,-2,1,-5
COc1ccc(CNC(=O)c2cn(Cc3ccccc3OC)c(=O)s2)cc1,x,x,-9,x,-20,x,4,2
CCn1c(=O)c([N+](=O)[O-])c(N2CCN(Cc3ccc4c(c3)OCO4)CC2)c2ccccc21,4,-4,4,x,x,-2,-11,11
O=C(NCCc1ccccc1)C1CCN(c2ncccn2)CC1,4,-12,-7,i,x,-1,2,-12
O=C(NCC(c1cccs1)N1CCOCC1)c1cc(S(=O)(=O)N2CCOCC2)c(Cl)cc1Cl (stereo not drawn),x,-3,-3,i,x,x,1,-11
Cc1cc(C)c(O)c(C2(O)C(=O)c3ccccc3C2=O)c1,-8,-2,3,i,x,-10,1,10
COc1cccc(C(=O)CSc2nccn2C)c1,12,-9,0,i,-20,4,0,-5
COc1cc(/C=N/NC(=O)CNc2n[nH]c(=O)[nH]c2=O)ccc1O,14,4,0,i,-11,-9,4,-12
CC(=O)Nc1ccc(S(=O)(=O)N2CCN=C2C)cc1,-2,-13,4,i,-8,-16,-8,-29
CCCN(Cc1ccccc1)C(=S)Nc1cccc(C(F)(F)F)c1,4,17,0,i,x,-8,4,9
COc1ccc(S(=O)(=O)NCCc2ccc(F)cc2)cc1,1,-20,-1,i,-8,9,2,-36
Cc1nc(-c2nnc(SCC(=O)Nc3cc(Cl)cc(Cl)c3)n2C)cs1,-5,6,3,i,-1,-3,4,-6
Cc1nc(CS(=O)(=O)c2ccccc2)cc(N2CCOCC2)n1,8,1,-2,i,2,5,2,x
C#CC(CC)(CC)NC(=O)c1ccc(Br)s1,-9,x,1,i,-14,-10,4,4
O=C(COC(=O)CCCOc1ccc(Cl)cc1Cl)Nc1cccc(Cl)c1,2,-13,1,i,x,-14,4,10
C/C(Nc1cccc(F)c1)=C(/C#N)C(N)=O,-5,x,-4,i,-20,-4,-3,x
O=C(c1ccccc1)N1CCN(C2CC3CCC2C3)CC1 (stereo not drawn),24,12,0,x,2,0,2,x
COc1ccc2cc(-c3[nH]ncc3CN3C[C@@H]4CCC[C@H]3C4)ccc2c1,-7,12,-5,i,x,-8,-4,-10
CC(Sc1nc(NC(C)(C)C)nc(N(C)C)n1)C(=O)Nc1ccccc1 (stereo not drawn),8,5,-3,i,-13,-5,-10,7
CCN(C(=O)COC(=O)CNC(=O)C1CCCCC1)c1ccccc1,x,x,4,x,-20,x,2,-5
CCc1nnc(SCC(=O)Nc2ccc(F)cc2)o1,8,-20,-1,i,-9,4,5,-17
Cc1nc2cc(N=NC3=C(O)CCCC3=O)ccc2s1,-2,15,1,x,x,41,1,-22
COc1ccc(C)cc1S(=O)(=O)Nc1ccc2c(c1)OCO2,0,-2,-7,i,x,0,-4,-12
NC(=O)[C@@H]1CC2(CC(c3cccc(NC(=O)[C@@H]4CCC(=O)N4)c3)=NO2)CN1C(=O)Cc1ccc([N+](=O)[O-])cc1 (stereo partly drawn),9,3,-2,i,-13,-5,5,9
COc1ccc(-c2nc(NCCN(C)C)nc3ccsc23)c(C)c1,x,x,1,x,-9,x,3,7
CCn1cc(C(=O)N2CCn3c(nc4ccccc43)C2)c(=O)c2ccc(C)nc21,24,-13,3,i,-18,21,12,4
CCC(CC)NC(=O)COn1nnc2ccc(S(=O)(=O)N3CCOCC3)cc21,x,0,4,i,28,x,2,-13
O=C(CCc1nnc(-c2ccc(-c3ccccc3)cc2)o1)NCCc1ccccn1,-9,4,2,i,x,-8,-1,28
CCCNS(=O)(=O)c1ccc(OCC(=O)Nc2ccc3c(c2)OCCO3)cc1,-1,-14,2,i,10,2,-3,-8
COc1cc(OC)nc(Oc2ccc(N)c(C)c2)n1,0,3,-3,i,-15,14,0,-8
CC(C)(C)OC(=O)N1CCC2(CC1)Oc1ccc(Cl)cc1C(=O)C21CC(c2ccc(Cl)cc2)=NO1 (stereo not drawn),x,2,-5,i,-17,x,-11,-4
O=C(NCCC(=O)N1CCN(S(=O)(=O)c2ccc(F)cc2)CC1)Nc1ccccc1,x,x,0,x,3,x,2,i
Oc1ccc(C(=Nc2ccccc2)c2ccccc2)c(O)c1,x,x,-6,x,-18,x,-4,-12
COc1ccc2c(c1)OC[C@H]1[C@H]2N2C(=O)CN(Cc3ccccc3)C(=O)[C@@]2(C)[C@H]1c1ccccc1,x,x,-45,x,-4,x,-6,8

# Additional results follow:
smiles,PABP FP inh,CSC inhib,MT1-MMP act inh,Rce1 inhib,Yeast UUG start,eIF4H FP inh,MT1-MMP act inh RFP,Env fusion inh
CCN(CC)c1ccc(C(=O)N/N=C(\C)c2cccnc2)cc1,19,17,0,i,x,-3,-1,7
NNC(=O)c1nc[nH]c1C(=O)Nc1ccccc1,-5,-6,3,i,-10,3,4,-11
O=C(Cn1cnc2ccccc21)NCCCN1CCOCC1,-2,-2,5,i,x,0,1,-21
O=C(Nc1cccc(Cl)c1)OCc1cncs1,4,1,-2,i,x,-6,-7,x
CCN(CC(=O)Nc1ccc(NC(C)=O)cc1)C(=O)C1CCN(C(=O)c2ccccc2C)CC1,x,x,1,x,6,x,-1,-4
NC1=NC(c2cn(-c3ccccc3)nc2-c2cccs2)n2c(nc3ccccc32)N1 (stereo not drawn),4,-5,-6,i,3,-1,1,x
CC(C)CC(=O)Nc1ncnc2c1C(=O)CC(C)(C)C2,2,-22,-5,i,-12,6,0,x
O=C1N2CCSC2=NC1(Nc1ccccn1)C(F)(F)F (stereo not drawn),-6,-11,-1,i,4,-6,2,x
O=C1c2ccccc2C(=O)C12OC(c1ccccc1)C1(C(=O)c3ccccc3C1=O)C2c1cccc([N+](=O)[O-])c1 (stereo not drawn),0,x,x,i,x,-13,x,x
O=C(CNC(=O)c1ccc(Br)o1)Nc1cccc(S(=O)(=O)N2CCCC2)c1,x,4,4,x,x,x,3,4
CC(=O)Nc1ccc(N2CCOCC2)c(C(=O)Nc2cccc(C)c2)c1,-1,-2,-2,i,-30,2,2,-5
COC(=O)CNC(=O)C1CCN(S(=O)(=O)c2cccc3nsnc23)CC1,8,-13,-2,i,-1,8,2,1
COc1cccc(CN(C)C(=O)CC23CC4CC(CC(C4)C2)C3)c1OC,8,x,-5,i,6,1,-6,42
CC(C)NC(=O)c1ccc2c(=O)n(CC3CCCO3)c(=S)[nH]c2c1 (stereo not drawn),19,1,1,i,x,3,1,-13
O=C(CN1CCN(c2ccccn2)CC1)Nc1ccc2ccccc2c1,-9,-10,0,i,-9,0,-1,x
Cc1[nH]n(-c2ccccc2)c(=O)c1C=NC1CCCCCC1,0,-5,2,i,x,-2,-1,2
CCOC(=O)C1(Cc2cccc(OC)c2)CCN(Cc2cccc3cnccc23)CC1,13,-15,-5,i,x,4,-13,53
CCN1CCN(S(=O)(=O)c2cc(C)c(OC)cc2C)CC1,8,1,0,i,-15,-7,2,-11
CN(Cc1cc2ccccc2[nH]c1=O)S(C)(=O)=O,-8,-13,0,i,-12,2,3,-8
Cc1ccc(-c2csc3nc(SCC(=O)N(C)C)n(Cc4ccccc4)c(=O)c23)cc1,-5,31,-12,i,-11,0,-11,-29
NC(=O)C1(C(=O)O)OC1(c1ccc(Cl)cc1)c1ccccc1Cl (stereo not drawn),x,x,-7,x,-6,x,4,7
COC(=O)Nc1nnc(-c2ccccc2OC)s1,3,-6,-2,i,x,3,0,-22
